Assay outcomes (PubChem)
NPYLR7 agonist – activates Aedes aegypti NPYLR7 receptor | HEK293T NPYLR7/Galpha15, GCaMP6s calcium fluorescence | activation, % at 10 µM | hit rate 0.15% among 270,000; in the data active means activation above about 40%;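 further: 0% = vehicle and 100% = reference agonist at the receptor; some compounds past the cut are filed as inactive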
NPYLR7 agonist max-min – recorded beside NPYLR7 agonist, whose call it bears; activation, %; measured here: Max-Min RFU normalised activation; some inactives read as strong as hits;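 span of the calcium signal over five minutes; 0% = vehicle and 100% = native peptide agonist; compound fluorescence can raise it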
Numbers without * were called inactive; & = joins results of further samples. The list is partial; count on the stated rates, not on these rows.

Results follow in this order: NPYLR7 agonist | NPYLR7 agonist max-min
- N#CC1(c2ccccc2)CCC2(CC1)CC(C(=O)N1CCC(C(N)=O)CC1)=NO2 (stereo unspecified)
→ 3 | 16
- COCCN(CC(=O)N(Cc1cccn1Cc1cccc(C)c1)C(C)(C)C)C(=O)c1ccc(OC)cc1
→ -7 | -4
- CC/C(=C(/CC)c1ccc(O)cc1)c1ccc(O)cc1
→ -7&-5 | -11&-9
- COC(=O)Cn1c(=NC(=O)c2ccno2)sc2cc(F)cc(F)c21
→ -10 | -16
- CS(=O)(=O)N1CCN(c2ncnc3c2nnn3Cc2ccccc2)CC1
→ -4 | -13
- O=C(c1cccc(C(F)(F)F)c1)N1CCN(C(c2ccccc2)c2ccc(Br)cc2)CC1 (stereo unspecified)
→ 15 | 3
- O=C(c1cccc(Cl)c1)N1CCN(S(=O)(=O)c2ccc(Br)cc2)CC1
→ 0 | -2
- CCc1c(C)nc(-n2nc(C)cc2C)n(CC(=O)N(C)c2ccccc2)c1=O
→ -3 | -6
- CSc1ccc(N2CC(C(=O)NCC3CCN(c4ccccc4)C3)CC2=O)cc1 (stereo unspecified)
→ -3 | -6
- Nc1ccc2c(c1)C(=O)NC2=O
→ -4 | -4

3 structures from above, arranged by length of the SMILES, largest number first:
Results follow in this order: NPYLR7 agonist | NPYLR7 agonist max-min
- CSc1ccc(N2CC(C(=O)NCC3CCN(c4ccccc4)C3)CC2=O)cc1 (stereo unspecified)
→ -3 | -6
- CC/C(=C(/CC)c1ccc(O)cc1)c1ccc(O)cc1
→ -7&-5 | -11&-9
- Nc1ccc2c(c1)C(=O)NC2=O
→ -4 | -4

The main list resumes; the two compounds before the break are reprinted first.
Results follow in this order: NPYLR7 agonist | NPYLR7 agonist max-min
- CSc1ccc(N2CC(C(=O)NCC3CCN(c4ccccc4)C3)CC2=O)cc1 (stereo unspecified)
→ -3 | -6
- Nc1ccc2c(c1)C(=O)NC2=O
→ -4 | -4
- COc1ccc(CNC(=O)N2CCC(n3cccc3)CC2)c(OC)c1
→ 4 | 1
- Clc1cnn(CCc2nn3c(Cc4ccccc4)nnc3s2)c1
→ -2 | -1
- C=CCSc1nc(C)c2cc(C)ccc2n1
→ 5 | 4
- COc1ccc(CCOc2nc(-c3ccccc3F)n(-c3ccc(NC(=O)c4ccco4)cc3)n2)cc1
→ 1 | 12
- COc1ccc(OC)c(N2CCN(C(=O)C3CCCC3)C(C)C2=O)c1 (stereo unspecified)
→ 1 | 6
- Cc1nc2cccc(C)n2c(=O)c1NC(=O)c1ccc2c(c1)OCO2
→ 3 | 0
- COc1ccc(-c2nnc(SCc3ccc(Cl)cc3)n2-c2ccccc2)cc1
→ -10 | -7
- Cc1cc(N(C)C)nc(NCCNC(=O)Nc2ccc(F)c(Cl)c2)n1
→ -1 | -1
- COCCCn1c(C)c(C)n2c3c(=O)n(CC(C)C)c(=O)n(C)c3nc12
→ 0 | 1
- CN(C)N1C(=N)C(C#N)C(c2ccccc2Cl)C2=C1CC(c1ccccc1)CC2=O (stereo unspecified)
→ -1 | -2

Additional compounds.
Results follow in this order: NPYLR7 agonist | NPYLR7 agonist max-min
- O=[N+]([O-])c1cc(S(=O)(=O)N2CCCCC2)ccc1Sc1cccc[n+]1[O-]
→ 1 | 1
- O=C(Nc1cccc([N+](=O)[O-])c1)C1COc2ccccc2O1 (stereo unspecified)
→ 2 | 0
- COCCn1c(C)cc(C(=O)CSc2nc(C)cc(C)c2C#N)c1C
→ 0 | -4
- COc1cccc(Cn2c(=O)c(C(=O)NCc3ccccn3)nn(-c3ccc(Cl)cc3)c2=O)c1
→ 10 | 8
- C/C=C/C(=O)N1CCC(Cc2ccc3c(c2)OCO3)CC1
→ 1 | -2
- CCOc1ccc(Nc2nc(NCCO)nc3c2cnn3-c2ccccc2)cc1
→ 0 | 0
- CC1CCC(CCC(=O)Nc2ccnn2C(C)C2CC2)O1 (stereo unspecified)
→ 6 | 4
- COc1cc([N+](=O)[O-])cc2c1NC(c1ccccc1)C1CC=CC21 (stereo unspecified)
→ -12 | -12
- CCCCCn1cn[nH]c1=S
→ -2 | -2
- NC(=O)c1cc(-c2csc(NC3CCCC3)n2)ccc1O
→ 5 | 11

(further entries)
Results follow in this order: NPYLR7 agonist | NPYLR7 agonist max-min
- COCCOC(=NC(C)C(C)C)NC(=O)c1ccc(Cl)c(Cl)c1 (stereo unspecified)
→ 21 | 22
- COc1ccc(F)c(CNC(=O)CCc2nc(-c3ccccc3F)no2)c1F
→ 5 | -3
- Cc1cccnc1CN1CCN(C(=O)C(=O)c2cccs2)CC1
→ -5 | -7
- O=C(Nc1ccc(-c2cccc(F)c2)cc1)C1CCCN1C(=O)c1ccccn1 (stereo unspecified)
→ 11 | 8
- COc1ccccc1CCN1CCC(CN(C)C(=O)c2ccsc2)CC1
→ 4 | 2
- Cc1nc2ncccn2c1C(=O)N1C[C@H]2C[C@H](C1)[C@@H]1CCCC(=O)N1C2
→ -2 | 35
- CCOc1ccccc1OCc1nn2c(C(F)(F)F)nnc2s1
→ 12 | 5
- O=C1C(Cl)=C(NCC2CCCO2)C(=O)N1c1cccc(Cl)c1Cl (stereo unspecified)
→ -10 | -20
- COC(=O)CC(=O)N1CCN(c2nccc(-c3ccc(C(C)(C)C)cc3)n2)CC1
→ 19 | 12
- COc1cc(-c2nc3ccccn3c2NC(C)(C)CC(C)(C)C)ccc1OC(=O)c1cccc(Cl)c1
→ 9 | 14

Single records (already shown). Screens in order: NPYLR7 agonist | NPYLR7 agonist max-min
Shown for O=C(Nc1ccc(-c2cccc(F)c2)cc1)C1CCCN1C(=O)c1ccccn1 (stereo unspecified) → 11 | 8
Shown for COCCCn1c(C)c(C)n2c3c(=O)n(CC(C)C)c(=O)n(C)c3nc12 → 0 | 1
Shown for COCCN(CC(=O)N(Cc1cccn1Cc1cccc(C)c1)C(C)(C)C)C(=O)c1ccc(OC)cc1 → -7 | -4
Shown for COc1cccc(Cn2c(=O)c(C(=O)NCc3ccccn3)nn(-c3ccc(Cl)cc3)c2=O)c1 → 10 | 8

Continuation:
Results follow in this order: NPYLR7 agonist | NPYLR7 agonist max-min
- CCNc1nc(NCC)nc(OCCNS(=O)(=O)c2ccc(C)cc2)n1
→ 1 | 0
- O=C(CN1CCc2sccc2C1c1ccccc1)N1CCCN(C(=O)c2ccccc2F)CC1 (stereo unspecified)
→ 14 | 4
- CN1CCC2(CC1)NC(=O)N(CN1CCc3ccccc3C1)C2=O
→ 11 | 11
- CCOC(=O)c1c(C)n(-c2ccccc2)c2ccc(OC(=O)c3ccc(S(=O)(=O)N4CCOCC4)cc3)cc12
→ 19 | 12
- CC(=O)c1ccc(N(CN2C(=O)c3ccc(Br)cc3C2=O)C(C)=O)cc1
→ 1 | -4
- Cc1nn(CC(=O)NCCN2C(=O)CSC2=O)c(C)c1[N+](=O)[O-]
→ 7 | 17
- COCCCC1CCN(C(=O)CC2C(=O)NCCN2Cc2ccccc2)CC1 (stereo unspecified)
→ 3 | 1
- O=C(CSc1nc(=O)n(Cc2ccncc2)c2c1CCC2)Nc1cccc(F)c1
→ -8 | -10
- Clc1ccc2c(NCCc3ccccc3)nc(-c3ccccc3)nc2c1
→ 0 | -5
- COc1ccc(OC)c(NC(=O)CSc2nc(=O)n(CCCN3CCOCC3)c3c2CCC3)c1
→ -1 | -4

Entries above containing fluorine:
Results follow in this order: NPYLR7 agonist | NPYLR7 agonist max-min
- COC(=O)Cn1c(=NC(=O)c2ccno2)sc2cc(F)cc(F)c21
→ -10 | -16
- O=C(c1cccc(C(F)(F)F)c1)N1CCN(C(c2ccccc2)c2ccc(Br)cc2)CC1 (stereo unspecified)
→ 15 | 3
- COc1ccc(CCOc2nc(-c3ccccc3F)n(-c3ccc(NC(=O)c4ccco4)cc3)n2)cc1
→ 1 | 12
- Cc1cc(N(C)C)nc(NCCNC(=O)Nc2ccc(F)c(Cl)c2)n1
→ -1 | -1
- COc1ccc(F)c(CNC(=O)CCc2nc(-c3ccccc3F)no2)c1F
→ 5 | -3
- O=C(Nc1ccc(-c2cccc(F)c2)cc1)C1CCCN1C(=O)c1ccccn1 (stereo unspecified)
→ 11 | 8
- CCOc1ccccc1OCc1nn2c(C(F)(F)F)nnc2s1
→ 12 | 5
- O=C(CN1CCc2sccc2C1c1ccccc1)N1CCCN(C(=O)c2ccccc2F)CC1 (stereo unspecified)
→ 14 | 4
- O=C(CSc1nc(=O)n(Cc2ccncc2)c2c1CCC2)Nc1cccc(F)c1
→ -8 | -10

The listing continues.
Results follow in this order: NPYLR7 agonist | NPYLR7 agonist max-min
- CC(C)CC1(C(=O)NC2CCOc3ccccc32)CCCC1 (stereo unspecified)
→ 7 | 6
- Cc1ccc(C(=O)c2c(N)c(C(=O)Nc3cccc(C)c3C)c3ccccn23)cc1
→ -1 | -5
- c1ccc(OCc2nc3ccccc3[nH]2)cc1
→ -7 | -11
- Clc1ccc2c(c1)C1CC(c3ccc4ccccc4c3)=NN1C(c1ccncc1)O2 (stereo unspecified)
→ -2 | -8
- COc1ccccc1OCC1CN(C(=O)c2cc(F)c(F)c(F)c2F)CCO1 (stereo unspecified)
→ 2 | -2
- Cc1ccc(Nc2nnc(-c3cc4cc(Cl)ccc4oc3=O)s2)cc1
→ 5 | 7
- CCOC(=O)C1(C)CCCN1C(=O)c1ccnc(Cl)c1 (stereo unspecified)
→ 1 | -1
- Cc1ccc(C2CC(=O)CC(c3ccc(C)cc3C)S2)c(C)c1 (stereo unspecified)
→ 1 | -8
- CC1CCN(C(=O)CSc2c(-c3ccccc3)[nH]c3ccccc23)CC1
→ 2 | 2
- CCOc1ccccc1NC(=O)N1CCc2cc(OC)c(OC)cc2C1c1ccc(OC)c(OC)c1 (stereo unspecified)
→ -2 | 1

Going on with the list:
Results follow in this order: NPYLR7 agonist | NPYLR7 agonist max-min
- O=C(CCc1ncc(-c2ccccc2)o1)N1CCN(S(=O)(=O)c2cccc(C(F)(F)F)c2)CC1
→ 1 | 0
- Cc1ccsc1C1NC(=O)c2c(sc3c2CCN(C)C3)N1 (stereo unspecified)
→ 41 | 32
- O=C(C=C(C1CC1)C1CC1)Nc1ccc(F)cn1
→ -1 | -2
- C=C(C)COc1ccccc1C(=O)NCc1ccc2[nH]c(=O)[nH]c2c1
→ -5 | -8
- Cc1cc(N(C)C)ccc1NC(=O)c1ccc2c(c1)OCC(=O)N2
→ -3 | -6
- O=C(Nc1c(-c2cc(=O)oc3cc4c(cc23)CCC4)oc2ccccc12)C1CC1
→ 1 | -1
- CC(C)(C#N)CCCNc1ccccc1OC1CCCC1
→ -1 | -2
- N#CC(C#N)=Cc1ccccc1OC(F)(F)C(F)C(F)(F)F (stereo unspecified)
→ 3 | 9
- COc1ccc(CN2CCC(CO)(CCCc3ccccc3)CC2)cc1OC
→ 7 | 5
- CC(N)c1ccc(-n2cc(C(N)=O)nn2)cc1 (stereo unspecified)
→ -3 | -4

(next part)
Results follow in this order: NPYLR7 agonist | NPYLR7 agonist max-min
- COc1ccc(-n2ncc(Oc3cccc(OC)c3)c(Nc3cccc(C(=O)NC4CC4)c3)c2=O)cc1
→ -5 | -2
- CCc1cccc(C)c1NC(=O)c1ccc(OCC#N)cc1
→ 4 | 2
- CN(C)C1C(=O)C(C(N)=O)C(=O)C2(O)C(=O)C3=C(O)c4c(O)ccc(Cl)c4C(O)C3CC12 (stereo unspecified)
→ 4 | 3
- Cc1ccc(C#N)cc1S(=O)(=O)Nc1nnc(C(C)C)s1
→ -3 | -3
- Cc1ccc(C(=O)Nc2ccc(N3CCC(NCc4scnc4-c4ccccc4)CC3)cc2)c(C)c1
→ 2 | -2
- CC(NC(=O)C1=NNC(=O)CC1)C12CC3CC(CC(C3)C1)C2 (stereo unspecified)
→ 5 | 7
- C=CCn1c(SCC(=O)N(C)c2ccccc2)nc2c([nH]c3ccccc32)c1=O
→ 1 | 0
- COc1csc(C(=O)NC(C#N)c2ccc(F)cc2F)c1 (stereo unspecified)
→ 12 | 11
- Cc1ccc(C(=O)N(C)CCC2CCOCC2)s1
→ 21 | 11
- COc1cccc(N2CCN(CCCOc3ccc(C#N)cc3)CC2)c1
→ 0 | 15

Later entries:
Results follow in this order: NPYLR7 agonist | NPYLR7 agonist max-min
- CCn1ncnc1-c1c(-c2ccccc2)ncn1CCc1ccccc1OC
→ 0 | -4
- CC(C)COCC(NC(=O)CSCc1ccncc1)c1ccco1 (stereo unspecified)
→ 1 | 0
- COC(=O)[C@@H]1C[C@@H](NC(=O)CCn2cncn2)CN1C
→ 12 | 13
- Cc1csc(CNS(=O)(=O)c2cc(F)cc(F)c2)n1
→ 7 | 4
- CN(C)S(=O)(=O)c1ccc(C(=O)N(CC2CC2)CC(F)(F)F)cc1
→ 1 | -1
- CCOC(=O)Cc1c(C)nc2ncnn2c1N1CCC(N(C)C(C)=O)C1 (stereo unspecified)
→ -1 | -4
- Cc1cn2c3c(=O)n(CCN4CCCCC4)c(=O)n(C)c3nc2n1-c1cccc(Cl)c1
→ 0 | -3
- O=C(c1ccc(N2CCSCC2)nc1)N1CCCC(c2ccccc2)CC1 (stereo unspecified)
→ 7 | 2
- COc1ccc(N2CCN(C3CCCN(Cc4cnc(SC)nc4)C3)CC2)cc1 (stereo unspecified)
→ 10 | 4
- Cn1[nH]c(CC(=O)Nc2ccc(-n3nccc3C(F)(F)F)cc2)cc1=O
→ 2 | 0

Remaining list, next part.
Results follow in this order: NPYLR7 agonist | NPYLR7 agonist max-min
- C=CCNC(=S)NN=C(C)c1ccc[nH]1
→ 2 | 10
- COCCCCC(=O)N1CCOc2c(Cl)cccc21
→ 5 | 2
- Cc1ncc(-c2c(-c3ccccc3)ncn2CCc2cccs2)[nH]1
→ -8 | -11
- Cc1c(C(=O)N2CCN(c3cccc(Cl)c3)CC2)cc(-c2ccc(Cl)cc2)n1-c1ccc(F)cc1
→ 19 | 17
- CN(Cc1ncc[nH]1)C(=O)C1CCCN(C2CCN(Cc3ccncc3)CC2)C1 (stereo unspecified)
→ 6 | 1
